Vaccinia Venus: qHTS for Stage-Specific Inhibitors of Vaccinia Orthopoxvirus: Venus Reporter Primary qHTS | AID 720580, 2013 | Vaccinia virus Venus reporter expression, fluorescence | hit rate 0.46% among 330,000 | Potency, µM (doses to about 36.5 µM), without a hit: top-dose activity change, negative = inhibition, hits mostly inhibitors; active means well fitted inhibition curve with a large enough effect; inconclusive means small, poorly fitted or top-dose-only effect; inactive means no such curve, though single readings can be large or run the other way; tested in A549 cells; also: nearly all actives have a fitted effect of over 30% in size; inactives centre near -10
Vaccinia mCherry: qHTS for Stage-Specific Inhibitors of Vaccinia Orthopoxvirus: mCherry Reporter Primary qHTS; Vaccinia virus mCherry reporter infection, fluorescence; about a quarter of the inactives have no number; AID 720579, 2013; hit rate 0.63% among 310,000; Potency, µM (doses to about 36.5 µM), without a hit: at the highest dose activity change, negative = inhibition, actives largely listed as inhibitors; active = well fitted inhibition curve with a large enough effect; inconclusive = small, poorly fitted or top-dose-only effect; inactive = no such curve, though single readings can be large or run the other way; tested in A549 cells; also: nearly all actives have a fitted effect of over 35% in size; inactives centre near -10
Active calls of the source: *; i = inactive; ? = inconclusive; . = not tested or not shown; & = joins results of further samples; [ ] = remark or other dose. % is scaled to controls: 0 for no effect and ±100 for the full control effect; potency is read from the fitted curve at half-maximal effect.

SMILES | Vaccinia Venus | Vaccinia mCherry
Cc1cc(C(=O)O)ccc1NCc1cccnc1 | 2% | -9%
C/C(CC(=O)Nc1ccc(N(C)C)cc1)=N\NC(=O)c1ccccn1 | -10% | .
O=C(Nc1ccccc1)Nc1ccc(S(=O)(=O)N2CCCCC2)cc1 | ? | -18%
CCOC(=O)C1=C(C)N=C2SCCC(=O)N2C1c1cc(Br)ccc1OC (configuration not stated) | -16% | .
Cc1ccc(C(=O)Nc2sc3c(c2C(=O)O)CCCCC3)o1 | ? | ?
O=C(NCc1ccccc1Cl)c1ccc(Nc2nc3ccccc3n3nnnc23)cc1 | -11%[7.34 µM] | -13%[7.34 µM]
CC(C)CN1CCc2nc(N3CCN(C)CC3)ncc2C1 | -4% | -8%
COC(=O)C(CCSC)NC(=O)c1cc2c(n(-c3ccccc3)c1=O)CCCC2=O (configuration not stated) | 11% | i
Cc1cc(S(=O)(=O)NCC(c2ccco2)S(=O)(=O)c2cccs2)ccc1F (configuration not stated) | -12% | -11%
N#CC1=C(c2ccc(-c3ccccc3)cc2)COC1=O | 1% | 15%
CN(Cc1ccccc1)C(=S)Nc1cccnc1 | -3% | 0%
O=C(N/N=C/c1ccc(Cl)cc1)c1cc(-c2cccnc2)nc2ccccc12 | -23% | -26%
Nc1ncnc2c1ncn2[C@@H]1O[C@H](C(=O)N2CCN(c3ccc(Cl)cn3)CC2)[C@@H](O)[C@H]1O | -11% | 8%
C=C1CCN([C@H](C(=O)NCc2ccc(Cl)cc2)C(C)C)S(=O)(=O)c2ccccc21 | -18% | i
Cc1cc(C)c(NC(=O)COC(=O)C23CC4CC(CC(O)(C4)C2)C3)c(Cl)c1 | -9% | i
Nc1ccc(C(=O)NCCCSc2ccccc2)cc1[N+](=O)[O-] | -5% | -3%
O=C1C2C3C=CC(C2C(=O)N1c1nccs1)C1C(=O)N(c2nccs2)C(=O)C31 (configuration not stated) | -3% | 7%
O=C(CCCC(=O)NN=Cc1cccc(O)c1)NN=Cc1cccc(O)c1 | -4% | -20%
O=C(/C=C/c1cccc([N+](=O)[O-])c1)c1ccc2c(c1)OCCO2 | -12% | -17%
Cc1nnc(SCC(=O)N(CC(C)C)C2CCS(=O)(=O)C2)s1 (configuration not stated) | -7% | -14%
NS(=O)(=O)c1ccc(NC(=S)Nc2ccc(Br)c(Cl)c2)cc1 | -13% | i
CC(=O)NC1C(OC2OC(CC(O)C3OC([N+]4=CCC(=O)NC4=O)C(O)C3O)C(O)C(O)C2NC(=O)/C=C/CCCCCCCCC(C)C)OC(CO)C(O)C1O (configuration not stated) | -12%[20.9 µM] | -6%[20.9 µM]
CN(C(=O)c1cncc(Br)c1)C1C2CC3CC(C2)CC1C3 (configuration not stated) | -3% | i
N#Cc1cn(Cc2cccc(Cl)c2)c2ccccc12 | 0% | -20%
CCn1ccc2cc(S(=O)(=O)N3CCCN(C(=O)Nc4ccc(C)c(F)c4)CC3)ccc21 | -6% | -16%
Next compounds:
SMILES | Vaccinia Venus | Vaccinia mCherry
Cc1sc(N)nc1-c1cccc([N+](=O)[O-])c1 | -14% | -3%
CCOc1ccc(-c2c(C(=O)N/N=C/c3ccc(O)cc3)nnn2-c2nonc2N)cc1 | 0% | i
O=C(c1c(Cl)nc2sccn12)N1CCN(c2cccc(Cl)c2)CC1 | ? | .
CCOC(=O)c1cc(NC(=O)Nc2nc3ccccc3s2)c(C)nc1C | -7% | -12%
O=C(Nc1ccc(S(=O)(=O)N2CCN(c3ccccc3)CC2)cc1)c1cccs1 | -17% | i
CC(C)N(C(=O)Cn1cc(S(=O)(=O)Cc2ccc(Cl)cc2)c2ccccc21)C(C)C | -17% | -17%
CC(C)C[C@H](NC(=O)c1[nH]cnc1C(=O)N[C@@H](Cc1ccccc1)C(=O)OCc1ccccc1)C(=O)OCc1ccccc1 | -5% | i
COc1ccc(Cl)cc1NC(=O)CN(C)C(=O)c1cn(-c2ccccc2)nc1-c1cccnc1 | ? | ?
CCOC(=O)Cc1ccc(NC(=O)Nc2ccccc2OCc2cc(=O)n3ccccc3n2)cc1 | -8% | 0%
CC12CCC(=O)CC1CCC1C2CCC2(C)C1CCC2(O)C(=O)CO (configuration not stated) | -19% | 0%
COC(=O)[C@@H]1C[C@@H]2CC[C@@H](O)C[C@@H]2N1Cc1ccc(Cl)cc1 | 4% | -5%
CNC(=S)Nc1cccc(S(=O)(=O)NCc2ccco2)c1 | -22% | -4%
O=C(NCCCCNC(=O)c1ccccc1F)c1ccccc1F | -9% | i
O=S(=O)(c1ccccc1)N1CCN(Cc2cc3c(cc2Br)OCCO3)CC1 | -5% | i
CCCOc1ccc(CN(C(=O)Cc2coc3ccc(CC)cc23)C2CCS(=O)(=O)C2)cc1 (configuration not stated) | -2% | -14%
Cc1ccccc1C(=O)NCCSc1ccccc1 | -18% | .
CCN(CC)CCN1C(=O)C(=O)/C(=C(/O)c2c(C)[nH]c(C(=O)OC)c2C)C1c1ccccc1OC (configuration not stated) | -15% | .
O=C(CN1CCN(Cc2ccccc2Cl)CC1)N/N=C/c1ccco1 | -1%[7.34 µM] | -13%[7.34 µM]
CSc1nnc2c3c4c(sc3c(=O)n(-c3ccccc3)n12)CC(C)(C)OC4 | 0% | -5%
CCN(CC)CCCNC(=O)CSc1nc2nc(C)c(Cc3c(F)cccc3Cl)c(C)n2n1 | -3% | -14%
O=C1CC2C(CC(OC(=O)c3ccc(-c4ccccc4)cc3)C2CO)O1 (configuration not stated) | -19% | .
COc1ccc([N+](=O)[O-])cc1NC(=O)CC1SC(=Nc2cccc(C)c2C)N(/N=C(\C)c2ccc(C)cc2)C1=O (configuration not stated) | -13% | i
CSC12CCCN(CCC(C(C)(C)C)C1)C2=O (configuration not stated) | 4% | 16%
O=C1CC2(CCN(C(=O)c3cccc(F)c3)CC2)Oc2ccccc21 | -13% | -10%
CCOC(=O)[C@H]1[C@H]2COc3ccc(Br)cc3[C@H]2N2C(=O)CN(Cc3ccc(Cl)cc3)C(=O)[C@@]12C | ? | -20%

Profiles as entered above:
`O=S(=O)(c1ccccc1)N1CCN(Cc2cc3c(cc2Br)OCCO3)CC1` is listed as Vaccinia Venus: -5%; Vaccinia mCherry: i
`O=C(CN1CCN(Cc2ccccc2Cl)CC1)N/N=C/c1ccco1` is listed as Vaccinia Venus: -1%[7.34 µM]; Vaccinia mCherry: -13%[7.34 µM]

Part of the list above, as tab-separated lines:
SMILES	Vaccinia Venus	Vaccinia mCherry
CC(C)N(C(=O)Cn1cc(S(=O)(=O)Cc2ccc(Cl)cc2)c2ccccc21)C(C)C	-17%	-17%
CC(C)C[C@H](NC(=O)c1[nH]cnc1C(=O)N[C@@H](Cc1ccccc1)C(=O)OCc1ccccc1)C(=O)OCc1ccccc1	-5%	i
COc1ccc(Cl)cc1NC(=O)CN(C)C(=O)c1cn(-c2ccccc2)nc1-c1cccnc1	?	?
CCOC(=O)Cc1ccc(NC(=O)Nc2ccccc2OCc2cc(=O)n3ccccc3n2)cc1	-8%	0%
CC12CCC(=O)CC1CCC1C2CCC2(C)C1CCC2(O)C(=O)CO (configuration not stated)	-19%	0%

More results
SMILES | Vaccinia Venus | Vaccinia mCherry
Cc1ccc(S(=O)(=O)N(C)C)cc1NC(=O)CSc1nc2ccccc2[nH]1 | -22% | -4%
Cc1ccc(N(Cc2ccccc2)C(=O)CSC(C)C(=O)Nc2cc(C)on2)cc1 (configuration not stated) | 2% | -19%
C=CCN1C(=O)/C(=C2/Sc3ccc(OC)cc3N2C)SC1=Nc1cccc(O)c1 | 1% | -19%
O=C1c2cccnc2C(O)N1Cc1ccco1 (configuration not stated) | -4% | -13%
CCc1ccccc1NC(=O)Cn1c(=O)n(-c2cccc(C)c2)c(=O)c2c1c1cc(OC)ccc1n2C | -5% | -6%
O=C(NCc1ccccc1)c1cc(S(=O)(=O)N2CCC3(CC2)OCCO3)ccc1F | -8% | -7%
O=C(Nc1ccc(Cl)c(S(=O)(=O)N2CCOCC2)c1)c1ccccc1-c1ccc(C(F)(F)F)cc1 | -17% | -8%
C(#CC1CCCCC1)c1ccc2c(c1)COc1c3ccccc3nn1-2 | -7% | -6%
NS(=O)(=O)c1ccc(N/C=C\C(=O)c2ccc3ccccc3c2)cc1 | -16% | -10%
CC(=O)Nc1cc(C)c(S(C)(=O)=O)c(C)c1 | -14% | -16%
O=c1ccn([C@@H]2O[C@H](CO)[C@@H](O)[C@H]2O)c(=O)[nH]1 | -15% | -6%
O=C(N/N=C\c1ccc(Cl)cc1Cl)c1sccc1-n1cccc1 | ? | .
Nc1ncnc2c1ncn2[C@H]1C[C@H](O)[C@@H](CO)O1 | 18%&12% | -9%&2%
CCOC(=O)C1CCN(C(=O)CSc2n[nH]c(-c3ccccc3)n2)CC1 | -6% | -13%
CN(C)c1cccc(/C=C(\C#N)c2ccccc2)c1 | ? | -25%
COc1ccc(OC)c(CNc2ccc(F)c(Cl)c2)c1 | -10% | i
CCCn1nnnc1SCC(=O)Nc1cccc(NC(=O)c2ccco2)c1 | -15% | -15%
Cc1cccc(N2C(=O)c3cccc4c(N)ccc(c34)C2=O)c1 | 157%[activator] | -15%
CCCCN(CCCC)c1cn[nH]c(=O)c1Cl | -14% | -12%
CCOC(=O)N1CCN(C(C(=O)NC2CCCC2)c2cccc(OC)c2OC)CC1 (configuration not stated) | -3% | -4%
CCCCCC1CC(CC(C)C(=O)Nc2nncs2)C(=O)O1 (configuration not stated) | -9% | -9%
Cc1ccc(NC(=O)/C(=C\c2ccc([N+](=O)[O-])cc2)NC(=O)c2ccccc2)cc1 | -26% | -28%
CCn1ccnc1CN(C)Cc1c(C(=O)N2CCCCCCC2)nc2ccc(Cl)cn12 | -26% | 0%
COc1cccc(-c2ccc(NC(=O)C3CCCN(Cc4ccc(CO)o4)C3)cc2)c1 (configuration not stated) | -18% | -27%
CCOC(=O)c1cccc(NC(=O)NCc2cccn2Cc2ccccc2)c1 | -10% | -9%
More compounds.
SMILES | Vaccinia Venus | Vaccinia mCherry
Cc1nnc(NC(=O)CSc2n[nH]c(-c3ccccc3C)n2)s1 | 0% | -27%
COc1ccccc1Oc1coc2c(CN3CCOCC3)c(O)ccc2c1=O | 0% | i
Cc1cc(C)c(NC(=O)CSc2nnc(CNC(=O)c3ccco3)o2)c(C)c1 | -7% | i
O=C(CSc1nnc(-c2ccco2)c(-c2ccco2)n1)Nc1ccccc1 | -10% | .
Cc1cc(C(=O)CCC(=O)N(C)CC(=O)Nc2c(Cl)cccc2Cl)c(C)s1 | -4% | i
O=C(CC1CC2CCC1C2)NCc1cccs1 (configuration not stated) | -9% | -17%
CCOC(=O)c1c(C)[nH]c(C(=O)O)c1C | -12% | -12%[1.46 µM]
O=C(c1ccc(F)cc1)N1c2ncnn2C2(CCCCC2)[C@@H]2CCCC[C@@H]21 | -11% | -16%
CCCNC(=O)c1n[nH]c(=O)c2ccccc12 | 11% | .
O=S(=O)(N1CCCCC1)N1CCN(c2cc(Cl)ccc2Cl)CC1 | -5% | 2%
COc1ccc(CCN(C)C2CCCN(C(=O)CCC(F)(F)F)C2)cc1OC (configuration not stated) | -6% | -10%
Cc1ccc(OCCOc2cccc(C=C3C(=O)NC(=O)NC3=O)c2)cc1 | -8% | i
COC(=O)c1[nH]c2ccc(Cl)cc2c1NC(=O)CN1CCc2cc(OC)c(OC)cc2C1 | -5% | .
Cc1ccccc1-n1c(N)c(C(=O)Nc2ccc(F)cc2)sc1=S | -4% | 4%
CCOc1ccccc1C(=O)NN1C(=O)CCC1=O | -8% | -10%
COc1ccccc1CNC(=O)c1cc(S(=O)(=O)N2CCN(c3ccccc3)CC2)ccc1Cl | -2% | i
CN(CC(=O)Nc1ccccc1Br)C(=O)C(Cc1ccccc1)NC(=O)c1ccccc1 (configuration not stated) | -22% | -23%
CCOC(=O)[C@H]1[C@H]2COc3cc(OC)ccc3[C@@H]2N2C(=O)CN(Cc3ccc(Cl)cc3)C(=O)[C@@]12C | -11% | -14%
CC(=O)Nc1ccc2c(c1)nc1n2CCN(C(C)c2ccccc2)C1 (configuration not stated) | -8% | -16%
CSc1nc(C)cc(C)c1C#N | 16% | .
CCOC(=O)[C@@H]1[C@H]2COc3cc(OC)ccc3[C@H]2N2C(=O)N(c3cccc(F)c3)C(=O)[C@@]12C | -25% | -3%
CC(SCC(=O)Nc1ccccc1Br)c1nc2ccccc2c(=O)[nH]1 (configuration not stated) | -27% | -1%
Cc1ccc(C)c(NC(=S)N2CCN(S(C)(=O)=O)CC2)c1 | -9% | -3%
Cc1ccc(NC(=O)COC(=O)CCc2c[nH]c3ccccc23)cc1 | -7% | i
O=C(Nc1cccc(-c2nc3cccnc3s2)c1)c1ccco1 | -8% | i
Cc1ccc(/C=C/C(=O)Nc2cccc(S(=O)(=O)N3CCOCC3)c2)o1 | -13% | -5%
C=CCOc1nc2c(c(=O)n(Cc3ccc(Cl)c(Cl)c3)c(=O)n2C)n1C | -9% | -27%
CCOC(=O)Cc1csc(NC(=O)CC(C)(C)CC(=O)O)n1 | -1%[7.34 µM] | -13%[7.34 µM]
CCOC(=O)CN1C(=O)N[C@@H](CCc2ccccc2)[C@H](C(=O)OC)[C@H]1C | -13% | -13%

Exported with values under each structure: part of the list above.
Second line of a record: Vaccinia Venus, Vaccinia mCherry
- CC(=O)NC1C(OC2OC(CC(O)C3OC([N+]4=CCC(=O)NC4=O)C(O)C3O)C(O)C(O)C2NC(=O)/C=C/CCCCCCCCC(C)C)OC(CO)C(O)C1O (configuration not stated)
→ -12%[20.9 µM], -6%[20.9 µM]
- CN(C(=O)c1cncc(Br)c1)C1C2CC3CC(C2)CC1C3 (configuration not stated)
→ -3%, i
- N#Cc1cn(Cc2cccc(Cl)c2)c2ccccc12
→ 0%, -20%

Assay outcomes (PubChem BioAssay)
